TDP1 inh = inhibitors of human tyrosyl-DNA phosphodiesterase TDP1 | Potency, µM (top dose mostly 130 µM), inactives show at the highest dose activity change, negative = inhibition, most hits filed as inhibitors | recombinant TDP1, AlphaScreen DNA substrate cleavage | Q9NUW8 | 350,000 tested, 0.28% active; note: nearly all actives have a fitted effect of over 40% in size
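Compounds were preincubated with Tdp1 (1 nM final) for 15 min at room temperature before substrate (15 nM final) started a 5 min reaction; beads (10 ug/ml final) were then added for 10 min before AlphaScreen detection.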
TDP1 cell noCPT = qHTS for Inhibitors of human tyrosyl-DNA phosphodiesterase 1 (TDP1): qHTS in cells in absence of CPT; 420,000 tested, 15% active; AID 686978, 2013; DT40 Tdp1-/- hTDP1 cells, no CPT, ATP luminescence, 48 h; Potency, µM (doses to about 46.2 µM), inactives show top-dose activity change, negative = growth inhibition, most hits filed as inhibitors; note: nearly all actives have a fitted effect of over 55% in size
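Growth of hTDP1-complemented DT40 Tdp1-knockout cells is measured by ATP luminescence after at least 48 hr compound exposure at 37 °C, with DMSO substituting for the 20 nM CPT used in the parallel screen.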
An asterisk follows results filed as active; ? = inconclusive; [ ] = remark or other dose. Calls come from the whole dose curve; as a rule, active = well fitted curve in the direction sought with a large enough effect; inconclusive = small, poorly fitted or top-dose-only effect, or another doubt; inactive = no such curve, though single readings can be large; an effect the other way counts as inactive or inconclusive. % is set by controls: 0 for no effect and ±100 for the full control effect; potency is the fitted concentration of half-maximal effect. Not all compounds are listed; most or all hits stand in other tables.

#1 COc1ccc(-n2c(O)c(C=Nc3c(C)n(C)n(-c4ccccc4)c3=O)c(=O)[nH]c2=O)cc1
#2 Cc1ccnc(-n2c(-c3ccccc3)nc3ccccc3c2=O)c1
#3 COc1cccc(OCC(=O)N2CCN(C)CC2)c1
#4 FC(F)(F)C1=NC(C(F)(F)F)=NP(N2CCOCC2)(N2CCOCC2)=N1
#5 COc1ccc(CCNCc2ccc(F)cc2)cc1OC

entry no.	1	2	3	4	5
TDP1 inh	2%	3%	3%	0%	2%
TDP1 cell noCPT	-9%	-22%	-8%	-1%	-9%

#6 CCc1ccc(N2C(=O)NC(=O)C(Cc3ccc(OC)cc3OC)C2=O)cc1 (stereo not drawn)
#7 Cc1ccc(C)c(C2(O)CC(C)N(C)CC2C)c1 (stereo not drawn)
#8 O=c1[nH]c(=O)n(Cc2ccc(F)cc2)c(O)c1C=NCCCN1CCOCC1
#9 Cc1ccc(C(C)C)c(OCC(=O)N2CCN(CC(=O)N3CCOCC3)CC2)c1
#10 CCCC(C)C1(CC)C(=O)NC(=Nc2ccccc2OC)NC1=O (stereo not drawn)

entry no.	6	7	8	9	10
TDP1 inh	-2%	7%	-5%	0%	2%
TDP1 cell noCPT	0%	?	-3%	-17%	-4%

Entries of single compounds as entered above. Order of screens: TDP1 inh	TDP1 cell noCPT
Cc1ccc(C)c(C2(O)CC(C)N(C)CC2C)c1 (stereo not drawn) is listed with 7%	?
CCc1ccc(N2C(=O)NC(=O)C(Cc3ccc(OC)cc3OC)C2=O)cc1 (stereo not drawn) is listed with -2%	0%
Cc1ccnc(-n2c(-c3ccccc3)nc3ccccc3c2=O)c1 is listed with 3%	-22%
COc1ccc(CCNCc2ccc(F)cc2)cc1OC is listed with 2%	-9%
O=c1[nH]c(=O)n(Cc2ccc(F)cc2)c(O)c1C=NCCCN1CCOCC1 is listed with -5%	-3%

Remaining list, next part:
11) OC12Oc3ccccc3C=C1N1CCC2CC1 (stereo not drawn)
  TDP1 inh = -1%
  TDP1 cell noCPT = -6%

12) CCc1ccc(OCC(=O)N2CCN(Cc3ccc4c(c3)OCO4)CC2)cc1
  TDP1 inh = 5%
  TDP1 cell noCPT = ?

13) CCCc1nnc(NC(=O)CCC(=O)N2CCN(CCOC(c3ccccc3)c3ccccc3)CC2)s1
  TDP1 inh = 2%
  TDP1 cell noCPT = -2%

14) Cc1nn(C)c(C)c1/C=C1/CC2C3CC=C4CC(O)CCC4(C)C3CCC2(C)C1=O (stereo not drawn)
  TDP1 inh = 7%[56.1 µM]
  TDP1 cell noCPT = ?

15) O=C(O)Cn1cc(C(=O)c2ccccc2F)c2ccccc21
  TDP1 inh = 4%
  TDP1 cell noCPT = 0%

16) COc1ccc(C(=O)C23CN4CN(CN(C4)C2)C3)cc1
  TDP1 inh = 0%
  TDP1 cell noCPT = 0%

17) CCn1cc(C(=O)c2cccs2)c2ccccc21
  TDP1 inh = 1%
  TDP1 cell noCPT = ?

18) COc1ccc(OC)c([C@@H](O)[C@H](C)NC(C)(C)C)c1
  TDP1 inh = 5%
  TDP1 cell noCPT = -8%

19) Cc1ccc2cccc(OC(=O)N3CCCC3)c2n1
  TDP1 inh = -7%
  TDP1 cell noCPT = -8%

Arranged by SMILES length (falling): some entries from above.
13) CCCc1nnc(NC(=O)CCC(=O)N2CCN(CCOC(c3ccccc3)c3ccccc3)CC2)s1
  TDP1 inh = 2%
  TDP1 cell noCPT = -2%

12) CCc1ccc(OCC(=O)N2CCN(Cc3ccc4c(c3)OCO4)CC2)cc1
  TDP1 inh = 5%
  TDP1 cell noCPT = ?

15) O=C(O)Cn1cc(C(=O)c2ccccc2F)c2ccccc21
  TDP1 inh = 4%
  TDP1 cell noCPT = 0%

19) Cc1ccc2cccc(OC(=O)N3CCCC3)c2n1
  TDP1 inh = -7%
  TDP1 cell noCPT = -8%

17) CCn1cc(C(=O)c2cccs2)c2ccccc21
  TDP1 inh = 1%
  TDP1 cell noCPT = ?
